Screens from PubChem BioAssay.
Sa growth inh: inhibitors of Staphylococcus aureus growth at 42 °C; S. aureus RN4220 growth, OD600, 20 h; active compounds read low; AID 720641; relative growth, % (no concentration beside the values); 0.53% of 170,000 active;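 active = growth at 42 °C up to 50% and 20 or more points under that at 30 °C, or under 10% at both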;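 note: 300 nL library stock went into each well; scaled to the means of positive and negative controls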
GIV Gai3 FP: GIV-Galpha-i interaction inhibition | percent of control (FP), % (no concentration beside the values) | 0.42% of 210,000 active | Galpha-i3/FITC-GIV peptide fluorescence polarization, 90 min; active compounds read low; scaled: aluminum fluoride 0%, vehicle 100% | P08753;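 active = replicate mean at 85% of control or lower, very high polarization wells dropped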;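 note: wells of about 15 µL received 100 nL stock; the first replicate is given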
Target sequence (P08753 whole entry, looked up): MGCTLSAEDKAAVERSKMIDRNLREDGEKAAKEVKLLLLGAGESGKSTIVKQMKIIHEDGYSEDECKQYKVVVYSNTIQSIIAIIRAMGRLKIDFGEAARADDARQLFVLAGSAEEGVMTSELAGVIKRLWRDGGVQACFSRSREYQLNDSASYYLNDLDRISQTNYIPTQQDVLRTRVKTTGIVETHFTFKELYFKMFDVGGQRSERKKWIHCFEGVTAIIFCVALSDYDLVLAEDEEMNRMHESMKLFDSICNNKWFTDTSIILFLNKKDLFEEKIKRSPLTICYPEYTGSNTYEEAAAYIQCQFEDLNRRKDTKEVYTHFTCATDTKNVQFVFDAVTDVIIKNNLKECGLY
HCMV UL50-53 inh: disrupts HCMV UL50-UL53 complex binding. 0.15% of 190,000 active. inhibition, % (test concentration not listed). HTRF UL50-UL53 interaction, normalized percent inhibition. AID 1918969;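 active = both replicates at 50% or more, plus weaker picks with an unusually low signal ratio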;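 note: stock transfer was 100 nL into about 20 µL; 0% = negative control wells and 100% = wells with untagged competitor protein; inactives centre near -12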
Sa growth inh second temp: also measured in Sa growth inh; calls as there; relative growth, %; measured here: growth at 30 °C;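 optical density after 20 h as mean of two plates; 100% = untreated growth and lower means inhibition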
Starred values were filed as active, the others as inactive; · = not tested or not shown; & = joins results of further samples.

SMILES	Sa growth inh	Sa growth inh second temp	GIV Gai3 FP	HCMV UL50-53 inh
Cc1cc(C(=O)NCCC2=CCCCC2)c(C)o1	79	84	97	-14
CCOC(=O)c1c(-c2ccccc2)oc2c1cc(OC(=O)c1ccccc1Cl)c1ccccc12	·	·	99	-4
Cn1cc(-c2nc(-c3ccncc3)no2)c(=O)c2cc(F)ccc21	·	·	98	-26
CCN1c2ccccc2-c2nc(SCC(=O)Nc3cccc(C(F)(F)F)c3)ncc2S1(=O)=O	73	92	103	·
O=C(CSc1nccn1-c1ccccc1)Nc1nc2ccccc2s1	104	88	96	·
Cc1cc(C)nc(NC(c2cccc(F)c2)c2c(NC(=O)c3ccccc3)sc(C)c2C)n1 (stereo unspecified)	·	·	104	-6
Cc1cccc(-n2c(SCC(N)=O)nc3c(c2=O)C2(CCCCC2)Cc2ccccc2-3)c1	·	·	102	-11
CC1CCc2c(sc(NC(=O)COn3nnc4ccccc43)c2C(N)=O)C1 (stereo unspecified)	82	91	·	-26
CCOC(=O)c1ccc2c(c1)N(C)C(=O)c1ccccc1S2	107	88	102	·
CCN(CC)CCCNC(=O)CCCn1c(=O)[nH]c2ccc(Br)cc2c1=O	99	87	106	-16
CCN(CC)C(=O)c1c(NC(=O)c2ccco2)sc2c1CCCCC2	82	76	102	-6
Cc1nc2c3ccccc3nc(NNC(=O)CCC(=O)N3CCN(c4ccc(F)cc4)CC3)n2n1	105	87	96	-8
O=C1CC(c2cccc(F)c2)c2c(n3ncnc3[nH]c2=O)N1 (stereo unspecified)	97	88	99	-11
CSc1nnc2[nH]c(=O)cc(N)n12	120	80	103	·
CNc1nc(Oc2ccc(C(=O)OC)cc2)nc(SC)n1	87	68	107	-34
O=C(O)CC1(CC(=O)N2CCc3ccccc32)CCCC1	116	92	·	-14
Cc1cc(Br)c2c3c(c(N)c(=O)[nH]c13)-c1ccccc1C2=O	118	98	114	-56
Cc1ccc(-c2cn3c(n2)sc2cc(C(=O)NCCCN4CCCCC4)ccc23)cc1	117	80	112	·
CCOc1ccc(NC(=O)CCc2nnc3n(C)c(=O)c4sccc4n23)cc1	91	98	105	11
Cc1cc(C)c(C(=O)Nc2ccccc2)c(CC(C)(C)C(=O)O)c1	109	90	104	-9
O=C(CCC1N=C2c3ccccc3N=C(SCc3ccc(F)cc3)N2C1=O)NC1CCCCC1 (stereo unspecified)	102	93	99	·
COc1ccc(S(=O)(=O)N2CCN(Cc3cccc(F)c3)CC2)c(OC)c1	100	97	104	-22
O=C(NCCC1=CCCCC1)C1CC(=O)N(C2CCCC2)C1 (stereo unspecified)	94	86	100	0
CCOc1cc2[nH]c(=S)n(CCC(OCC)OCC)c(=O)c2cc1OCC	108	103	102	5
CC1CCN(S(=O)(=O)c2csc(C(N)=O)c2)CC1	104	79	104	·
CCCN(CCC)S(=O)(=O)c1ccc(C(=O)Nc2sc3c(c2C(=O)OC)CCN(CC)C3)cc1	121	102	117	·
Fc1ccc(N=Cc2ccc3ncccc3c2)cc1F	100	101	·	8
CCc1ccc(NC(=O)CSc2nc(=O)n(Cc3ccncc3)c3c2CCC3)cc1	138	85	98	·
CCCN1C(=O)C(O)(CC(=O)c2ccc(C(C)C)cc2)c2ccccc21 (stereo unspecified)	104	94	108	13
C1CNCC(CN2CCCC2)C1 (stereo unspecified)	104	108	105	5
O=C(CC12CC3CC(CC(C3)C1)C2)NCC(=O)OCc1nnc(-c2ccc(Br)cc2)o1	106	89	·	-11
Cc1ccc(CSCCNC(=O)C2CCN(S(=O)(=O)Cc3ccccc3)CC2)cc1	100	95	108	-5
Cc1ccccc1C(=O)N1CCC(c2nc3ccccc3s2)CC1	100	82	98&99	-27&-15
Cc1nn(C(=O)C(C)N2C(=O)c3ccccc3C2=O)c(C)c1Br (stereo unspecified)	81	90	96	-37
NC(=O)c1cc(S(=O)(=O)NCc2cccs2)cs1	102	89	101	-17
Cn1cc(S(=O)(=O)N2CCCCCC2)cc1C(=O)N1CCN(c2ccc(F)cc2)CC1	88	88	101	·
c1ccc(CSc2snnc2-c2ccccc2)cc1	·	·	102	-14
Cc1csc2c(=O)sc(NC(=O)c3ccc(F)cc3Cl)nc12	98	84	103	-15
COc1ccc(OC)c(NC(=O)c2cnc(N3CCCCC3)c3ccccc23)c1	111	90	107	·
COc1cccc(CNC(=O)c2ccc3c(c2)N(Cc2ccc(F)cc2Cl)C(=O)c2ccccc2S3)c1	100	95	99	·

Among those listed so far, these have a thiophene ring, fused or not:
SMILES	Sa growth inh	Sa growth inh second temp	GIV Gai3 FP	HCMV UL50-53 inh
Cc1cc(C)nc(NC(c2cccc(F)c2)c2c(NC(=O)c3ccccc3)sc(C)c2C)n1 (stereo unspecified)	·	·	104	-6
CC1CCc2c(sc(NC(=O)COn3nnc4ccccc43)c2C(N)=O)C1 (stereo unspecified)	82	91	·	-26
CCN(CC)C(=O)c1c(NC(=O)c2ccco2)sc2c1CCCCC2	82	76	102	-6
CCOc1ccc(NC(=O)CCc2nnc3n(C)c(=O)c4sccc4n23)cc1	91	98	105	11
CC1CCN(S(=O)(=O)c2csc(C(N)=O)c2)CC1	104	79	104	·
CCCN(CCC)S(=O)(=O)c1ccc(C(=O)Nc2sc3c(c2C(=O)OC)CCN(CC)C3)cc1	121	102	117	·
NC(=O)c1cc(S(=O)(=O)NCc2cccs2)cs1	102	89	101	-17
Cc1csc2c(=O)sc(NC(=O)c3ccc(F)cc3Cl)nc12	98	84	103	-15

The listing continues.
SMILES	Sa growth inh	Sa growth inh second temp	GIV Gai3 FP	HCMV UL50-53 inh
Cc1cc(C(=O)COC(=O)Cn2cnnn2)c(C)n1-c1cccc(S(=O)(=O)N2CCOCC2)c1	82	85	·	-22
O=C1CC(C(=O)Nc2ccccc2)N=C(N2CCCCC2)N1 (stereo unspecified)	77	83	100	·
COc1cccc2cc(C(=O)N3CCN(CCO)CC3)c(=O)oc12	96	93	·	-19
CC(C)(C)NC(=O)CCC1=NS(=O)(=O)c2ccccc2N1	97	102	110	-10
O=C(C1CCCN(c2ccc3cc(S(=O)(=O)N4CCCCC4)ccc3n2)C1)N1CCCCC1 (stereo unspecified)	·	·	109	-30
COc1ccc(C2=C(C)C(=O)N(Cc3ccc(C(=O)Nc4cccc(F)c4)cc3)S2(=O)=O)cc1	96	88	107	·
COC(=O)c1cc(S(=O)(=O)N2CCSC2)oc1C	95	90	101	-30
Cc1ccc(N(CC(=O)N2CCN(c3ccc(F)cc3)CC2)S(=O)(=O)c2c(C)noc2C)cc1	108	89	102	-24
Cc1ccc2c(c1)N(C(=O)CN1CCCN(Cc3ccccc3)S1(=O)=O)CCO2	96	91	102	-12
O=C(CN1C(=O)COc2ccc(Cl)cc21)Nc1cccc(F)c1	97	91	102	·
CCCCCC(=O)N1c2ccccc2NC2=C(C(=O)CC(C)(C)C2)C1c1cccc(OC)c1OC (stereo unspecified)	·	·	106	-19
CCN1C(=O)c2ccccc2Sc2ccc(NC(=O)NC3CCCC3)cc21	95	89	108	·
O=C(Nc1ccc(S(=O)(=O)N2CCCCC2)cc1)c1sc2ccccc2c1Cl	·	·	107	-11
Cc1cc(Nc2sc(C(=O)c3ccc(F)cc3)c(N)c2C(=O)Nc2ccc(F)cc2)ccc1Cl	88	64	109	·
COc1cc(NC(=O)c2c3c(nc4ccccc24)C(=O)N(C2CCCCC2)C3)cc(OC)c1	106	100	102	·
CN1/C(=C\C(=O)COC(=O)Cc2cn3ccsc3n2)C(C)(C)c2ccccc21	106	83	·	-24
CCCOc1c(Br)cc(/C=C2\NC(=S)NC2=O)cc1OCC	·	·	92	-18
CC(=O)Nc1cc(C(F)(F)F)ccc1N1CCOCC1	92	100	108	8
CC(C)c1ccc(/C=C/C(=O)O)cc1	88	117	93	-24
CCOc1ccccc1NC(=O)CSc1nc2cnn(C)c2c(=O)n1Cc1ccccc1	99	93	111	-21
COc1ccc(N2C(=O)c3cc4ccccc4n3CC2(C)C(=O)NC2CCCCC2)cc1OC (stereo unspecified)	·	·	100	-18
COC(=O)c1cc(S(=O)(=O)N(C)CC(=O)NC2CCCCC2)cn1C	·	·	101	-8
CC1(C)CC(=O)C2=C(C1)OC1=C(C(=O)CC(C)(C)C1)C2c1ccc(OCc2ccc(Cl)cc2Cl)cc1	·	·	99	-21
COc1ccc(OCC(O)CNC(=O)Nc2ccccc2)cc1 (stereo unspecified)	98	92	101	-10
Cc1ccc(CNC(=O)CC2Oc3ccc(Cl)cc3NC2=O)cc1 (stereo unspecified)	94	93	101	-15
O=C(NCc1cccnc1)C1CCC(CNS(=O)(=O)c2cccc3nsnc23)CC1 (stereo unspecified)	69	90	106	-33
Cc1ccc(CNC(=O)C2CCCN(S(=O)(=O)c3c(C)[nH]c(=O)[nH]c3=O)C2)cc1 (stereo unspecified)	98	90	101	-29
Cn1ccnc1SCc1cn2ccsc2n1	105	82	·	-37
Cc1ccc(O)c(C(=O)c2cc(C#N)c(=O)n(C3CCCCC3)c2)c1	97	86	·	-24
CCOC(=O)c1c(CSc2nc(C)ccc2C#N)oc2ccc(OC(C)=O)cc12	85	110	·	-1
O=C(Nc1ccc(O)c(-c2nc3ccccc3o2)c1)c1ccco1	81	86	101	-7
Cc1ccc2c(c1)c1nnc(SCC(=O)Nc3ccc(N(C)C)cc3)nc1n2CC(=O)O	93	90	101	-77
O=C(O)CCCC(=O)Nc1nc2n(n1)C(c1ccc(Cl)cc1)C=C(c1ccc(Cl)cc1)N2 (stereo unspecified)	·	·	104	-63
Cc1nc(C)c(C(=O)Nc2ccccc2Cl)s1	·	·	113	5
CC(C)CCOc1ccc(C(=O)O)cc1	100	87	·	-6
COC(=O)CN(c1c(C)cccc1C)S(C)(=O)=O	73	88	111	-6
CC(C)CCNC(=O)Nc1ccc2c(c1)N(C)C(=O)CS2	94	88	102	-11
Cc1c(NC(=O)c2ccc(S(N)(=O)=O)cc2)cccc1-c1nc2cccnc2s1	·	·	111	-4
CSc1c(C#N)c(N)nc(SCc2ccc(F)c(F)c2)c1C#N	112	92	106	-8
COc1ccccc1N1CCN(CC(O)c2ccc3cc[nH]c3c2)CC1 (stereo unspecified)	103	87	109	0

Compound profiles (already shown). Order of values: Sa growth inh, Sa growth inh second temp, GIV Gai3 FP, HCMV UL50-53 inh
Record of `COc1ccc(OCC(O)CNC(=O)Nc2ccccc2)cc1` (stereo unspecified) = 98, 92, 101, -10
Record of `Cc1ccc(O)c(C(=O)c2cc(C#N)c(=O)n(C3CCCCC3)c2)c1` = 97, 86, ·, -24
Record of `Cc1nc(C)c(C(=O)Nc2ccccc2Cl)s1` = ·, ·, 113, 5
Record of `CC(C)CCOc1ccc(C(=O)O)cc1` = 100, 87, ·, -6
Record of `COc1ccc(N2C(=O)c3cc4ccccc4n3CC2(C)C(=O)NC2CCCCC2)cc1OC` (stereo unspecified) = ·, ·, 100, -18

Retrieved one by one from above, four records:
SMILES	Sa growth inh	Sa growth inh second temp	GIV Gai3 FP	HCMV UL50-53 inh
CC1(C)CC(=O)C2=C(C1)OC1=C(C(=O)CC(C)(C)C1)C2c1ccc(OCc2ccc(Cl)cc2Cl)cc1	·	·	99	-21
Cc1nn(C(=O)C(C)N2C(=O)c3ccccc3C2=O)c(C)c1Br (stereo unspecified)	81	90	96	-37
Cc1ccc(CNC(=O)C2CCCN(S(=O)(=O)c3c(C)[nH]c(=O)[nH]c3=O)C2)cc1 (stereo unspecified)	98	90	101	-29
NC(=O)c1cc(S(=O)(=O)NCc2cccs2)cs1	102	89	101	-17

The listing continues:
SMILES	Sa growth inh	Sa growth inh second temp	GIV Gai3 FP	HCMV UL50-53 inh
N#C/C(=C/c1cn(CC(=O)O)c2ccccc12)c1ccc(C(=O)O)cc1	102	105	104	-33
CC(C)c1ccc(C(=O)O)c(C(C)C)c1	110	98	·	-15
COc1cc2c(cc1OC)-c1nc3ccccc3c(=O)n1C(C)(C)C2	92	80	102	-8
CCc1nc2c(cnn2-c2ccc3ccccc3c2)c(=O)[nH]1	101	91	·	-11
